Ecoli rRNA inh = reduced GFP signal of wild-type E. coli, primary screen, bacterial rRNA inhibitor project, GFP/RFP fluorescence, OD600, single point; E. coli WT GFP vs humanized-ribosome RFP mutants, 24 h; active compounds read low; DMSO median 0, no signal -100; GFP signal change (wild-type ribosome), % (no concentration beside the values); 350,000 tested, 1.6% active;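 active means significant combined selectivity score with lowered wild-type GFP, culture density cut under 30%, mutant RFP and density less affected; inactive means any of these conditions unmet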; further: one replicate is shown; some compounds called inactive have numbers as strong as hits
Ecoli rRNA inh OD600 = second read-out of Ecoli rRNA inh, no call of its own (marks repeat the call); OD600 change, %; measured here: OD600 growth;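 optical density of the mix in the first replicate; 0 = DMSO median and -100 = no signal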
Ecoli rRNA inh RFP = recorded beside Ecoli rRNA inh, whose call it bears; RFP signal change, %; measured here: RFP humanized mutant strains;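 first replicate; 0 = DMSO median and -100 = no signal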
* hit, by the source's call; & = joins results of further samples.

Results for C[C@@H]1CN([C@H](C)CO)C(=O)c2cc(NS(C)(=O)=O)ccc2O[C@@H](C)CCCCO[C@@H]1CN(C)C(=O)Cc1ccccc1 ?
Ecoli rRNA inh: -3; Ecoli rRNA inh OD600: 9; Ecoli rRNA inh RFP: -0.9

How did O=C(C[C@H]1CC[C@@H]2[C@H](COC[C@H](O)CN2Cc2nccs2)O1)NCc1ccc(F)cc1 do in these assays?
Ecoli rRNA inh: -3; Ecoli rRNA inh OD600: -6; Ecoli rRNA inh RFP: -5.4

What do the screens show for `O=C(NCC1CC1)[C@@H]1[C@@H](CO)[C@@H]2Cn3c(ccc(/C=C/c4ccccc4)c3=O)[C@H]1N2C(=O)C1CCC1`?
Ecoli rRNA inh: -4; Ecoli rRNA inh OD600: -10; Ecoli rRNA inh RFP: 1.6

Results for O=C(Nc1ccc2c(c1)OCO2)N1C[C@@H]2N[C@H](C1)C2c1ccc(-c2ccccc2)cc1 (stereo partly specified) ?
Ecoli rRNA inh: 0; Ecoli rRNA inh OD600: 2; Ecoli rRNA inh RFP: -2.8

Results for C[C@H]1CN([C@@H](C)CO)C(=O)Cc2cc(NC(=O)Nc3ccc(C(F)(F)F)cc3)ccc2O[C@@H]1CN(C)CC1CC1 ?
Ecoli rRNA inh: 1; Ecoli rRNA inh OD600: -1; Ecoli rRNA inh RFP: 1.3

What do the screens show for `O=C(C[C@H]1CC[C@@H]2[C@H](COC[C@@H](O)CN2C(=O)Nc2ccc(Cl)c(Cl)c2)O1)NCc1ccncc1`?
Ecoli rRNA inh: -58; Ecoli rRNA inh OD600: -81; Ecoli rRNA inh RFP: -18

What do the screens show for `O=C(NC1CCC1)[C@H]1[C@H](CO)[C@H]2Cn3c(ccc(-c4ccccc4F)c3=O)[C@H]2N1Cc1ccncc1`?
Ecoli rRNA inh: 3; Ecoli rRNA inh OD600: 3; Ecoli rRNA inh RFP: 2.1

What do the screens show for `CCCN(C)C[C@@H]1OCc2cnnn2CCCC(=O)N([C@H](C)CO)C[C@@H]1C`?
Ecoli rRNA inh: 1; Ecoli rRNA inh OD600: 3; Ecoli rRNA inh RFP: -0.8

How did COc1cccc(CN2[C@H](CO)[C@H](c3ccccc3)C23CN(C(=O)C2CCC2)C3)c1 do in these assays?
Ecoli rRNA inh: -4; Ecoli rRNA inh OD600: -10; Ecoli rRNA inh RFP: 2.5

What do the screens show for `COc1ccc2c3c(n(C)c2c1)[C@H](CO)N(C(=O)c1cnccn1)CC31CN(C)C1`?
Ecoli rRNA inh: 3; Ecoli rRNA inh OD600: 11; Ecoli rRNA inh RFP: -2.3

How did CCNC(=O)C[C@@H]1CC[C@H]2[C@@H](COc3ccc(NC(=O)Nc4ccccc4F)cc3C(=O)N2C)O1 do in these assays?
Ecoli rRNA inh: 3; Ecoli rRNA inh OD600: 3; Ecoli rRNA inh RFP: -0.5

What do the screens show for `C[C@H](CO)N1C[C@H](C)[C@@H](CN(C)C(=O)Nc2ccc(F)cc2)Oc2ccc(NC(=O)Cn3cnnn3)cc2CC1=O`?
Ecoli rRNA inh: 5; Ecoli rRNA inh OD600: 7; Ecoli rRNA inh RFP: -0.3

What do the screens show for `COc1ccc(C#Cc2ccc([C@H]3[C@@H](CO)N4CCCCN(C(=O)c5ccncc5)C[C@H]34)cc2)cc1`?
Ecoli rRNA inh: 2; Ecoli rRNA inh OD600: -9; Ecoli rRNA inh RFP: 11

What do the screens show for `CCC(=O)N(C)C[C@H]1Oc2cc(C#CC3CC3)ccc2S(=O)(=O)N([C@@H](C)CO)C[C@@H]1C`?
Ecoli rRNA inh: -1; Ecoli rRNA inh OD600: -9; Ecoli rRNA inh RFP: 2.3

What do the screens show for `COc1ccc(S(=O)(=O)N(C)C[C@@H]2Oc3ccc(NC(=O)NC4CCCCC4)cc3C(=O)N([C@H](C)CO)C[C@H]2C)cc1`?
Ecoli rRNA inh: -2; Ecoli rRNA inh OD600: 3; Ecoli rRNA inh RFP: 0.5

How did C[C@@H](NC(=O)C[C@H]1C[C@@H]2c3cc(N(C)C)ccc3O[C@@H]2[C@H](CO)O1)c1ccccc1 do in these assays?
Ecoli rRNA inh: 3; Ecoli rRNA inh OD600: 2; Ecoli rRNA inh RFP: 0.3

Results for CCc1cc(C(=O)Nc2cc(S(=O)(=O)N3CCCCC3)ccc2N2CCN(C)CC2)sc1C ?
Ecoli rRNA inh: -19; Ecoli rRNA inh OD600: -42; Ecoli rRNA inh RFP: 11

What do the screens show for `O=C(NCc1cccnc1)c1ccc(-c2ccc(F)c(F)c2)c2ccoc12`?
Ecoli rRNA inh: -37; Ecoli rRNA inh OD600: -57; Ecoli rRNA inh RFP: -17

How did C[C@H]1CN([C@@H](C)CO)C(=O)CCCn2cc(nn2)CO[C@@H]1CN(C)S(=O)(=O)c1ccc(-c2ccccc2)cc1 do in these assays?
Ecoli rRNA inh: 3&-3; Ecoli rRNA inh OD600: -7&1; Ecoli rRNA inh RFP: 2.3&0.7

Results for C[C@@H]1CCCCO[C@@H](CN(C)Cc2ccc(C(F)(F)F)cc2)[C@@H](C)CN([C@H](C)CO)C(=O)c2cc(NC(=O)Nc3ccc4c(c3)OCO4)ccc2O1 ?
Ecoli rRNA inh: 5; Ecoli rRNA inh OD600: 9; Ecoli rRNA inh RFP: -0.6

What do the screens show for `O=C(Nc1ccc(OCc2ccccc2)cc1)Nc1nnc([C@H]2C[C@H](O)[C@@H](CO)O2)s1`?
Ecoli rRNA inh: -31; Ecoli rRNA inh OD600: -56; Ecoli rRNA inh RFP: -5.0

How did O=C(Nc1ccc2c(c1)OCO2)N[C@@H]1CC[C@@H](CCNC(=O)C2CCOCC2)O[C@@H]1CO do in these assays?
Ecoli rRNA inh: 1; Ecoli rRNA inh OD600: -2; Ecoli rRNA inh RFP: 2.7

Results for C[C@@H]1CN([C@H](C)CO)C(=O)Cc2cc(NC(=O)C3CC3)ccc2O[C@H]1CN(C)C(=O)Nc1ccc(C(F)(F)F)cc1 ?
Ecoli rRNA inh: 2; Ecoli rRNA inh OD600: -9; Ecoli rRNA inh RFP: -3.5

What do the screens show for `Cc1ccc(S(=O)(=O)Nc2ccc3c(c2)CC(=O)N([C@@H](C)CO)C[C@H](C)[C@H](CN(C)C(=O)Nc2cccc4ccccc24)O3)cc1`?
Ecoli rRNA inh: -1; Ecoli rRNA inh OD600: 0; Ecoli rRNA inh RFP: 1.7

How did C[C@H](CO)N1C[C@H](C)[C@H](CN(C)Cc2ccccc2)Oc2ccc(NC(=O)CCN3CCOCC3)cc2CC1=O do in these assays?
Ecoli rRNA inh: -3; Ecoli rRNA inh OD600: 10; Ecoli rRNA inh RFP: -0.3

How did CN(C)C(=O)c1ccc(-c2ccccc2[C@H]2[C@H](C#N)N(C(=O)C3CCCCC3)[C@H]2CO)cc1 do in these assays?
Ecoli rRNA inh: 2; Ecoli rRNA inh OD600: 7; Ecoli rRNA inh RFP: -1.2

Results for C[C@H]1CCCCO[C@@H](CN(C)C(=O)Nc2cccc3ccccc23)[C@@H](C)CN([C@@H](C)CO)C(=O)c2cc(NS(C)(=O)=O)ccc2O1 ?
Ecoli rRNA inh: -1; Ecoli rRNA inh OD600: -10; Ecoli rRNA inh RFP: 2.0

What do the screens show for `C[C@@H]1CN([C@@H](C)CO)C(=O)c2cc(NC(=O)C3CCCCC3)ccc2O[C@@H](C)CCCCO[C@H]1CN(C)C(=O)Nc1ccc2c(c1)OCO2`?
Ecoli rRNA inh: -3; Ecoli rRNA inh OD600: -1; Ecoli rRNA inh RFP: 1.4

What do the screens show for `C[C@@H]1CCCCO[C@H](CN(C)Cc2ccccc2)[C@H](C)CN([C@H](C)CO)C(=O)c2cc(NC(=O)Nc3ccc4c(c3)OCO4)ccc2O1`?
Ecoli rRNA inh: 2; Ecoli rRNA inh OD600: -7; Ecoli rRNA inh RFP: 3.6

What do the screens show for `C[C@H]1CN([C@@H](C)CO)C(=O)CCCn2cc(nn2)CO[C@H]1CN(C)C(=O)Nc1cccc(Oc2ccccn2)c1`?
Ecoli rRNA inh: -2; Ecoli rRNA inh OD600: 3; Ecoli rRNA inh RFP: -1.9

Results for CNC[C@H]1Oc2ccc(NS(=O)(=O)c3ccc(C)cc3)cc2CC(=O)N([C@@H](C)CO)C[C@@H]1C ?
Ecoli rRNA inh: 6; Ecoli rRNA inh OD600: 11; Ecoli rRNA inh RFP: -1.3

How did CCNC(=O)C[C@H]1CC[C@H]2[C@H](COc3ccc(NC(=O)Nc4cccc(Cl)c4)cc3C(=O)N2C)O1 do in these assays?
Ecoli rRNA inh: 0; Ecoli rRNA inh OD600: -12; Ecoli rRNA inh RFP: 0.1

Results for Cc1ccc(S(=O)(=O)NCc2ccccc2Br)cc1 ?
Ecoli rRNA inh: -36; Ecoli rRNA inh OD600: -57; Ecoli rRNA inh RFP: -6.7

What do the screens show for `C[C@@H]1CCCCO[C@@H](CN(C)Cc2ccc(C(F)(F)F)cc2)[C@@H](C)CN([C@@H](C)CO)C(=O)c2cc(NC(=O)Nc3cccc4ccccc34)ccc2O1`?
Ecoli rRNA inh: 1; Ecoli rRNA inh OD600: 8; Ecoli rRNA inh RFP: 0.6

How did C[C@H](CO)N1C[C@H](C)[C@H](CN(C)S(=O)(=O)c2cccc(F)c2)Oc2cc(C#CCN(C)C)ccc2S1(=O)=O do in these assays?
Ecoli rRNA inh: -1; Ecoli rRNA inh OD600: 2; Ecoli rRNA inh RFP: 2.6

Results for CCCn1c(=S)[nH]c2cc(C(=O)N3CCN(c4ccc(F)cc4)CC3)ccc2c1=O ?
Ecoli rRNA inh: 14; Ecoli rRNA inh OD600: 25; Ecoli rRNA inh RFP: -0.6

What do the screens show for `CO[C@@H]1CN(C)C(=O)c2ccc(NC(=O)C3CC3)cc2OC[C@@H](C)N(C(=O)c2ccncc2)C[C@H]1C`?
Ecoli rRNA inh: 3; Ecoli rRNA inh OD600: 2; Ecoli rRNA inh RFP: -0.6

What do the screens show for `C[C@H]1CN([C@@H](C)CO)C(=O)c2cc(NC(=O)Nc3cccc4ccccc34)ccc2O[C@H]1CN(C)C(=O)Nc1cccc2ccccc12`?
Ecoli rRNA inh: -1; Ecoli rRNA inh OD600: 5; Ecoli rRNA inh RFP: -4.0

How did C[C@@H]1CCCCO[C@H](CN(C)S(=O)(=O)c2ccc(Cl)cc2)[C@@H](C)CN([C@H](C)CO)C(=O)c2cc(NC(=O)NC3CCCCC3)ccc2O1 do in these assays?
Ecoli rRNA inh: -3; Ecoli rRNA inh OD600: 2; Ecoli rRNA inh RFP: -4.9

How did C[C@@H]1CN([C@@H](C)CO)C(=O)Cc2cc(NS(=O)(=O)c3ccc(F)cc3)ccc2O[C@@H]1CN(C)CC1CCCCC1 do in these assays?
Ecoli rRNA inh: 0; Ecoli rRNA inh OD600: -12; Ecoli rRNA inh RFP: 0.7

How did Nc1ccn([C@@H]2O[C@H](C(=O)NCCCN3CCCC3=O)[C@@H](O)[C@H]2O)c(=O)n1 do in these assays?
Ecoli rRNA inh: 8; Ecoli rRNA inh OD600: 5; Ecoli rRNA inh RFP: -0.2

What do the screens show for `CNC[C@@H]1OCCCC[C@H](C)Oc2ccc(NC(=O)Nc3c(C)noc3C)cc2C(=O)N([C@@H](C)CO)C[C@H]1C`?
Ecoli rRNA inh: 7; Ecoli rRNA inh OD600: -1; Ecoli rRNA inh RFP: -2.8

What do the screens show for `COc1ccccc1-c1ccc(C2[C@H]3CNC[C@@H]2N3Cc2cc(-c3ccccc3)on2)cc1` (stereo partly specified)?
Ecoli rRNA inh: -54; Ecoli rRNA inh OD600: -68; Ecoli rRNA inh RFP: 5.8

How did Cc1[nH]nc2c1C(c1ccc3c(c1)OCO3)N(Cc1ccccc1)C2=O (stereo unspecified) do in these assays?
Ecoli rRNA inh: -10; Ecoli rRNA inh OD600: -34; Ecoli rRNA inh RFP: -5.2

How did CN(C)c1ccc2c(c1)[C@H]1C[C@H](CC(=O)NCC3CC3)O[C@@H](CO)[C@H]1O2 do in these assays?
Ecoli rRNA inh: 3; Ecoli rRNA inh OD600: 8; Ecoli rRNA inh RFP: 2.7

Results for C[C@H](CO)N1C[C@H](C)[C@H](CN(C)Cc2ccc3c(c2)OCO3)Oc2ccc(NC(=O)NC3CCCCC3)cc2CC1=O ?
Ecoli rRNA inh: 1; Ecoli rRNA inh OD600: 5; Ecoli rRNA inh RFP: -2.0

Results for COc1ccc(S(=O)(=O)N(C)C[C@@H]2Oc3c(NS(=O)(=O)c4c(C)noc4C)cccc3C(=O)N([C@H](C)CO)C[C@@H]2C)cc1 ?
Ecoli rRNA inh: -4; Ecoli rRNA inh OD600: -11; Ecoli rRNA inh RFP: -1.0

What do the screens show for `COc1ccccc1S(=O)(=O)N[C@H]1CC[C@@H](CCn2cc(C3CCCC3)nn2)O[C@H]1CO`?
Ecoli rRNA inh: -3; Ecoli rRNA inh OD600: 3; Ecoli rRNA inh RFP: -2.1

Structures from the list above with two or more sulfur atoms (3):
Results for CCc1cc(C(=O)Nc2cc(S(=O)(=O)N3CCCCC3)ccc2N2CCN(C)CC2)sc1C ?
Ecoli rRNA inh: -19; Ecoli rRNA inh OD600: -42; Ecoli rRNA inh RFP: 11

How did C[C@H](CO)N1C[C@H](C)[C@H](CN(C)S(=O)(=O)c2cccc(F)c2)Oc2cc(C#CCN(C)C)ccc2S1(=O)=O do in these assays?
Ecoli rRNA inh: -1; Ecoli rRNA inh OD600: 2; Ecoli rRNA inh RFP: 2.6

Results for COc1ccc(S(=O)(=O)N(C)C[C@@H]2Oc3c(NS(=O)(=O)c4c(C)noc4C)cccc3C(=O)N([C@H](C)CO)C[C@@H]2C)cc1 ?
Ecoli rRNA inh: -4; Ecoli rRNA inh OD600: -11; Ecoli rRNA inh RFP: -1.0

Assay outcomes from PubChem BioAssay.

Only part of the results is shown (hit frequency here may not be typical).
